# Screening data deposited in PubChem by National Center for Advancing Translational Sciences (NCATS).
# Marburg entry – Marburg virus entry inhibition. Marburg virus pseudotype entry/binding inhibition, cell-based; control for the full effect not named in the record; many of its hits are not listed in these tables. AID 720532. Potency, µM (top dose mostly 49.2 µM), without a hit: at the highest dose activity change, negative = inhibition, actives largely listed as inhibitors. actives 6.5% (n = 18,000); active means well fitted inhibition curve with a large enough effect; inconclusive means small, poorly fitted or top-dose-only effect; inactive means no such curve, though single readings can be large or run the other way; tested in HEK293 cells; further: luciferase read-out
# LASV entry inh – Lassa virus entry inhibition; Lassa virus pseudotyped entry inhibition, cell-based qHTS; control for the full effect not named in the record; many of its hits are not listed in these tables; Potency, µM (highest dose often 49.2 µM), inactives show top-dose activity change, negative = inhibition, hits mostly inhibitors; actives 4.1% (n = 18,000); AID 720533; active = well fitted inhibition curve with a large enough effect; inconclusive = small, poorly fitted or top-dose-only effect; inactive = no such curve, though single readings can be large or run the other way; tested in HEK293 cells; further: luciferase read-out
# Numbers without * were called inactive; ? = inconclusive; . = not tested or not shown; & = joins results of further samples; [ ] = dose if it differs, or a comment. On the % scale 0 is the no-effect control and ±100 the full control effect; potency means the concentration at half of the fitted maximal effect.
SMILES,Marburg entry,LASV entry inh
C=CCN=C1NC(CCc2ccccc2)C(C(=O)OC)=C(C)N1CC (stereo not given),?,-13%[8.59 µM]
Cc1[nH]c(=O)c(C#N)cc1-c1ccc2nccn2c1,9%&1%,2%&8%
CCC1(C)CC(=O)NC(=O)C1,6%[17.8 µM],0%[17.8 µM]
CC(C)Nc1oc(-c2ccccc2)nc1-c1ccc(C(F)(F)F)cc1,-8%[8.59 µM],-11%[8.59 µM]
O=C1N[C@@H](Cc2ccccc2)C(=O)N2[C@H]1CSCCS2(=O)=O,20%,-21%
O=P(O)(O)OC1[C@H](O)[C@H](OP(=O)(O)O)C(OP(=O)(O)O)[C@H](OP(=O)(O)O)[C@H]1O (stereo not given in full),15%[1.73 µM],-3%[1.73 µM]
CCOC(=O)NN=C1C[C@@H](O)[C@@H](O)[C@@H]2[C@H]3C(=O)N(CC)C(=O)[C@@H]3CC[C@@H]12,8%[8.59 µM],6%[8.59 µM]
Cc1cc(OC(=O)N2CCCCC2)c(C(C)C)cc1[N+](C)(C)C,14%,2%
CC[C@H](C)[C@H](NC(=O)CNC(=O)[C@H](CCCNC(=N)N)NC(=O)[C@H](CO)NC(=O)[C@H](C)NC(=O)[C@H](Cc1ccc(O)cc1)NC(=O)[C@H](Cc1c[nH]c2ccccc12)NC(=O)[C@H](C)NC(=O)[C@@H]1CCCN1C(=O)[C@H](CC(N)=O)NC(=O)[C@@H](NC(=O)[C@H](CC(=O)O)NC(=O)[C@@H]1CCCN1C(=O)[C@@H](NC(=O)[C@H](CCCNC(=N)N)NC(=O)[C@@H](NC(=O)[C@H](CCC(=O)O)NC(=O)[C@H](CCSC)NC(=O)[C@H](CO)NC(=O)[C@H](Cc1cnc[nH]1)NC(=O)[C@H](CCCNC(=N)N)NC(=O)[C@H](Cc1cnc[nH]1)NC(=O)[C@@H](NC(=O)[C@H](CCCNC(=N)N)NC(=O)[C@@H](N)CO)[C@@H](C)O)[C@@H](C)CC)[C@@H](C)O)[C@@H](C)CC)C(=O)N[C@@H](CCCNC(=N)N)C(=O)N1CCC[C@H]1C(=O)N[C@H](C(=O)NCC(=O)N[C@@H](CCCNC(=N)N)C(=O)N[C@@H](Cc1ccccc1)C(N)=O)C(C)C,12%,-9%
COc1cc(N)c(Cl)cc1C(=O)OCCN1CCCCC1,-17%,5%
CCCCC/C=C\C[C@@H](O)/C=C/C=C\C/C=C\CCCC(=O)O,17%&-4%,-2%&-3%
O=C(/C=C/c1ccc(Cl)cc1)N[C@@]12CCC(=O)[C@@H]3Oc4c(O)ccc5c4[C@@]31CCN(CC1CC1)C2C5,?,-24%

# Single records, from the list above.
# Profile of Cc1[nH]c(=O)c(C#N)cc1-c1ccc2nccn2c1 = Marburg entry: 9%&1%; LASV entry inh: 2%&8%
# Profile of CC(C)Nc1oc(-c2ccccc2)nc1-c1ccc(C(F)(F)F)cc1 = Marburg entry: -8%[8.59 µM]; LASV entry inh: -11%[8.59 µM]

# Part of the list above in order of molar mass, low to high:
SMILES,Marburg entry,LASV entry inh
CCC1(C)CC(=O)NC(=O)C1,6%[17.8 µM],0%[17.8 µM]
Cc1[nH]c(=O)c(C#N)cc1-c1ccc2nccn2c1,9%&1%,2%&8%
Cc1cc(OC(=O)N2CCCCC2)c(C(C)C)cc1[N+](C)(C)C,14%,2%
CC(C)Nc1oc(-c2ccccc2)nc1-c1ccc(C(F)(F)F)cc1,-8%[8.59 µM],-11%[8.59 µM]
CCOC(=O)NN=C1C[C@@H](O)[C@@H](O)[C@@H]2[C@H]3C(=O)N(CC)C(=O)[C@@H]3CC[C@@H]12,8%[8.59 µM],6%[8.59 µM]
O=P(O)(O)OC1[C@H](O)[C@H](OP(=O)(O)O)C(OP(=O)(O)O)[C@H](OP(=O)(O)O)[C@H]1O (stereo not given in full),15%[1.73 µM],-3%[1.73 µM]
O=C(/C=C/c1ccc(Cl)cc1)N[C@@]12CCC(=O)[C@@H]3Oc4c(O)ccc5c4[C@@]31CCN(CC1CC1)C2C5,?,-24%

# The listing continues:
SMILES,Marburg entry,LASV entry inh
COC(=O)C1=C(C(=O)OC)[C@@H]2Nc3ccccc3[C@@]23C[C@@H](C(=O)OC)N(C(=O)NC2CCCC2)C3=N1,-4%[8.59 µM],1%[8.59 µM]
CCCCCC(=O)c1c(O)cc(OC)c(Cl)c1O,?,?
CN1CCC(n2cnc(-c3ccc(F)cc3)c2-c2ccnc(Nc3ccccc3)n2)CC1,?,?
C=CCCC1CN(CC=C)S(=O)(=O)c2c(F)cccc2O1 (stereo not given),25%,17%
COc1ccc(-c2ccnc(-n3ncc(C(=O)NCc4ccon4)c3C3CC3)n2)cc1F,?,-14%
CCCC[C@]12Cc3cc(C#N)ccc3[C@H](O1)c1c(c3cc(F)ccc3oc1=O)O2,29%[8.59 µM],3%[8.59 µM]
O=C(Cn1cc(COc2c(F)c(F)c(Br)c(F)c2F)nn1)c1ccc(O)cc1,28%,-23%
CCCCN1CCCC1C(=O)Nc1c(C)cc(C)cc1C (stereo not given),-10%,3%
C=CCN1[C@H](C)[C@@H](c2ccccc2)Oc2c(Cl)cccc2S1(=O)=O,-28%,-13%
Cc1cnc(-n2ncc(C(=O)NCC3COCCO3)c2C2CC2)nc1-c1cccs1 (stereo not given),50%[activator],60%[activator]
O=C(c1ccccc1-n1cccn1)N1CCOc2ccc(CN3CCOCC3)cc2C1,7%,-9%
CCCCCCCCN[C@@H](C)[C@H](O)c1ccc(SC(C)C)cc1,11µM*,-5%[17.8 µM]
Cc1ccccc1C1CC(=O)Oc2cc(C)c(Cl)c(C)c21 (stereo not given),-9%,-3%
O=C1/C(=C\c2ccccc2)C[C@@]2(O)[C@H]3Cc4ccc(O)c5c4[C@@]2(CCN3CC2CC2)[C@H]1O5,?,4µM*
Cc1c(C(=O)NC2CCCC2)sc2ncnc(NCCN(C)C)c12,-11%,-16%
CC(C)Cc1nc2cc(NS(=O)(=O)N(C)C)cc(C(=O)N3CCc4sccc4C3)c2n1C,21%,-3%
COC(=O)C1OC(=O)C2OC23[C@]2(C)C(OC(C)=O)CC4C(C)(C)C(=O)CC[C@]4(C)C2CC[C@@]13C (stereo not given in full),-12%,0%
Oc1ccc2c3c1O[C@H]1c4oc5ccccc5c4C[C@@]4(O)C(C2)N(CC2CC2)CC[C@]314,14µM*,?
CSCC[C@H](NC(=O)CN)C(=O)N[C@@H](CC(=O)O)C(=O)N[C@@H](CO)C(=O)N[C@@H](CC(C)C)C(=O)N[C@@H](C)C(=O)N[C@@H](Cc1ccccc1)C(=O)N[C@@H](CO)C(=O)NCC(=O)NCC(=O)N[C@@H](CC(C)C)C(N)=O,6%,7%
Cc1ccc([C@H]2C[C@@H](O)[C@H](n3cc(-c4ccc(F)cc4)nn3)CN2C(=O)c2cccs2)cc1,-36%,.
CC(C)CNc1cccc2c1S(=O)(=O)N[C@H](CC(C)C)CO2,22%,24%
NCCC[C@@H](CC(=O)N[C@@H]1CCNC[C@H]1C(=O)N[C@H](CC(=O)N[C@@H](CCC(=O)O)CC(=O)O)Cc1c[nH]c2ccccc12)NC(=O)C[C@H](Cc1ccccc1)NC(=O)[C@@H]1CNCC[C@H]1N,-6%,0%
CCOC(=O)C(SP(=S)(OC)OC)c1ccccc1 (stereo not given),19%,-11%
COc1cccc(-c2nc(NCCc3c[nH]c4ccc(OC)cc34)c3ccccc3n2)c1,0%,-5%
CN[C@H]1C[C@@H](N)[C@H](O)[C@@H](O[C@@H]2O[C@H](CO)[C@H](O)[C@@H]3OC4(O[C@H]23)O[C@H](C(N)CO)[C@H](O)[C@H](O)[C@H]4O)[C@@H]1O (stereo not given in full),3%&-15%,?
O=C(CCCN1CCC(O)(c2ccc(Br)cc2)CC1)c1ccc(F)cc1,?,-16%[17.8 µM]
CC1CC[C@@]2(OC1)O[C@@H]1[C@@H](O)[C@H]3C4CC[C@H]5C[C@@H](O[C@@H]6O[C@H](CO)[C@H](O[C@@H]7O[C@H](CO)[C@@H](O)[C@H](O[C@@H]8OC[C@@H](O)[C@H](O)[C@H]8O)[C@H]7O[C@@H]7O[C@H](CO)[C@@H](O)[C@H](O[C@@H]8O[C@H](CO)[C@@H](O)[C@H](O)[C@H]8O)[C@H]7O)[C@H](O)[C@H]6O)[C@H](O)C[C@]5(C)C4CC[C@]3(C)[C@H]1[C@@H]2C (stereo not given in full),25µM*,14µM*
COc1ccc2ccc(=O)oc2c1CC=C(C)C,7%,-5%
CCN1CCN(C(=O)c2sc3ncnc(NCC4CCCO4)c3c2C)CC1 (stereo not given),-2%,7%
CCCCCCCCc1ccc(-c2ccc(C(=O)O)cc2)cc1,-1%&22%,9%&11%
COCCN1C(=O)NC(c2cccc(C(F)(F)F)c2)C(C(=O)OC)=C1C (stereo not given),24%&-3%[8.59 µM],27%&13%[8.59 µM]
Cc1ccncc1C(=O)O,13%,-17%
O=C(O)c1ccc(-c2ccc(-c3ccccc3)cc2)o1,7%,4%
COc1ccc2c(c1)OC(=O)CC2c1cc(OC)c(OC)c(OC)c1 (stereo not given),-30%,?
COc1cc(-c2oc3cc(O)cc(O)c3c(=O)c2OC[C@@H]2OC(O[C@@H]3O[C@@H](C)[C@H](O)[C@@H](O)[C@H]3O)[C@@H](O)[C@H](O)[C@@H]2O)ccc1O (stereo not given in full),11%,-2%
COCc1c(C(C)C)nc(C(C)C)c(/C=C/[C@@H](O)C[C@@H](O)CC(=O)O)c1-c1ccc(F)cc1,5%,-26%
O=C(Nc1c(F)c(F)c(F)c(F)c1F)OC[C@@H]1CSCCS(=O)(=O)N1,11%,28%
CC[C@H](C)[C@H](NC(=O)[C@@H](NC(=O)[C@@H](NC(=O)[C@H](CCC(=O)O)NC(=O)[C@H](CCC(=O)O)NC(=O)[C@H](CCC(=O)O)NC(=O)[C@H](C)NC(=O)[C@@H](N)CC(C)C)C(C)C)C(C)C)C(=O)N[C@@H](CCCNC(=N)N)C(=O)N[C@@H](CO)C(=O)N[C@@H](C)C(=O)N[C@@H](CC(N)=O)C(=O)N[C@@H](Cc1ccccc1)C(=O)N[C@H](C(=O)N[C@@H](CC(=O)O)C(=O)N[C@@H](CC(N)=O)C(=O)O)[C@@H](C)O,2%,3%
CC(C)C[C@@H](CC(=O)N[C@@H](CCC(=O)O)CC(=O)O)NC(=O)[C@@H]1CNCC[C@H]1NC(=O)C[C@@H](NC(=O)C[C@H](Cc1c[nH]c2ccccc12)NC(=O)[C@@H]1CNCC[C@H]1N)C(C)C,-11%,8%
CC(=O)OC1CC[C@@]2(C)C3CC(=O)[C@]4(C)C(C(C)=O)=CCC4C3CC[C@H]2C1 (stereo not given in full),-10%,0%
CC(=O)N[C@@H](Cc1c[nH]c2ccccc12)C(=O)O,13%,21%
CC1=CC(=O)C2=C(C)C[C@@H]3OC(=O)[C@@H](C)[C@H]3C=C12,-4%,3%
O=C1CC2(CCCC2)CC(=O)N1CCNC[C@H]1COc2ccccc2O1,12%,-16%
CN(C)CC(C)(O)c1ccc2c(c1)CN(Cc1cn(C)c3ccccc13)CCO2 (stereo not given),?,?
COc1ccccc1C1CC(=O)Oc2cc(C)c(Cl)cc21 (stereo not given),2%,-15%
CC(O)(P(=O)(O)O)P(=O)(O)O,15%,-12%
O=c1c(-c2ccc(O)cc2)coc2cc(O)cc(O)c12,62%&60%&-21%[activator],?
O[C@H]1C[C@H](c2ccc(Cl)cc2)N(Cc2cccs2)C[C@H]1n1cc(C2CC2)nn1,?,-5%
O=C(C=Cc1ccc2c(c1)OCO2)c1ccc(F)cc1,-9%[8.59 µM],3%[8.59 µM]
COC(=O)C[C@H]1c2ccccc2[C@@H]2C(=C[C@@H](C)[C@H]3C(=O)N(O)C(=O)[C@H]32)N1C(=O)OC,8%[8.59 µM],4%[8.59 µM]
OC[C@H]1O[C@@H](n2cnc3c(=S)nc[nH]c32)[C@H](O)[C@@H]1O,7.9µM*,6.3µM*
CC[C@H](C)[C@@H](NC(=O)O[C@@H]1C(=O)c2cc(OC)ccc2O[C@H]1c1ccc(OC)c(Br)c1)C(=O)OC,22%,-3%
CCOC(=O)c1ncn2c1CN(C)C(=O)c1c(I)cccc1-2,11%,5%
COc1cccc2c1C1(CCCCC1)CC2NC(=O)C(F)(F)F (stereo not given),-15%[8.59 µM],-11%[8.59 µM]
CCOC(=O)NC(O)C(Cl)(Cl)Cl (stereo not given),-19%,-16%
C[C@@H](N)C(=O)c1ccccc1,1%[107 µM],-2%[107 µM]
Cc1ccc2[nH]c3c(c2c1)CN(C(=O)CC1(c2ccccc2)CC(=O)N(Cc2cccnc2)C1=O)CC3 (stereo not given),-26%,-25%
Nc1ccccc1,-3%,-10%
Cc1c(C(=O)NCC2(N3CCOCC3)CCCC2)cnn1-c1nccc(-c2ccccc2F)n1,?,-21%
COCC1=Cc2cc3c(cc2C(C(C(=O)OC)C(=O)OC)N1C(=O)OC)OCO3 (stereo not given),26%,6%
# More entries follow:
SMILES,Marburg entry,LASV entry inh
CCCN1CCC(Oc2cc(Nc3nc(Nc4cccc(F)c4C(N)=O)c4cc[nH]c4n3)c(OC)cc2Cl)CC1,10µM*,?
COC(=O)CC1C(C)(C)C(=O)C2CC3C4=CC(=O)OC(c5ccoc5)[C@]4(C)CCC3[C@@]1(C)C2=O (stereo not given in full),-4%,-4%
CCCCCCCCCCCCCCCCCCCCCC(=O)Nc1ccn([C@@H]2O[C@H](CO)[C@@H](O)[C@@H]2O)c(=O)n1,4%,8%
CS(=O)(=O)Nc1cccc(-c2nc(Nc3ccc(F)cc3)c3ccccc3n2)c1,?,?
O=c1[nH]c2cc(Cl)c(Cl)cc2[nH]c1=O,76%&19%[activator],65%&-5%[activator]
C=C[C@](C)(O)CCC1C(=C)CCC2[C@@](C)(CO)CCC[C@@]12C (stereo not given in full),1%,?
CCCCCCCCCCOc1cc(OCCCCCCCCCC)cc(N(CC(=O)O)CC(=O)O)c1,5%,3%
